FGF22 binding: binders of human FGF22 protein, primary screen, FGF22 synaptogenesis inhibitor project, biophysical, thermal shift, single point; recombinant FGF22 thermal shift, SYPRO orange fluorescence; percent of sucrose octasulfate shift, DMSO zero; calls only at 9.99 µM; hit rate 1.5% among 340,000;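 active = melting point raised past a set limit in the mean and every replicate; three in four hits are not shown here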
Target sequence (Q9HCT0 whole entry, looked up): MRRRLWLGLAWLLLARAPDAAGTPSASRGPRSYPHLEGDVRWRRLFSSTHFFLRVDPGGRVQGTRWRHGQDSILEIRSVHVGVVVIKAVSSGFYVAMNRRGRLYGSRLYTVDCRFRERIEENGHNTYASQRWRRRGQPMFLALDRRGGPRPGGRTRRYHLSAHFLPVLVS
Calls only; i = inactive.

cpd | SMILES | FGF22 binding
1 | C[C@H](CO)N1C[C@H](C)[C@H](CN(C)Cc2ccccn2)Oc2cc(-c3cncnc3)ccc2S1(=O)=O | i
2 | C[C@H]1CN([C@@H](C)CO)C(=O)c2cc(NC(=O)Nc3cccc4ccccc34)ccc2O[C@H]1CN(C)Cc1ccc(Cl)c(Cl)c1 | i
3 | COc1ccc(S(=O)(=O)Nc2ccc3c(c2)C(=O)N([C@@H](C)CO)C[C@@H](C)[C@@H](CN(C)C(=O)CCCN(C)C)OCCCC[C@H](C)O3)cc1 | i
4 | CC(=O)Nc1ccc2c(c1)C(=O)N(C)[C@@H]1CC[C@H](CC(=O)Nc3cn(C)nc3C)O[C@H]1CO2 | i
5 | C[C@@H]1CN([C@H](C)CO)C(=O)c2cc(NS(C)(=O)=O)ccc2O[C@@H](C)CCCCO[C@@H]1CN(C)S(=O)(=O)c1ccc(F)cc1 | i
6 | Cc1ccc(S(=O)(=O)Nc2ccc3c(c2)CC(=O)N([C@@H](C)CO)C[C@@H](C)[C@@H](CN(C)CC2CCCCC2)O3)cc1 | i
7 | C[C@H]1CN([C@@H](C)CO)C(=O)c2cc(NC(=O)CCN3CCOCC3)ccc2O[C@H]1CN(C)Cc1ccncc1 | i
8 | CCCC#Cc1ccc([C@H]2[C@@H](CO)N3CCCCN(C(=O)c4ccc5c(c4)OCO5)C[C@H]23)cc1 | i
9 | Cc1cc(C(=O)Nc2cccc3c2O[C@H](CN(C)S(=O)(=O)c2cn(C)cn2)[C@H](C)CN([C@@H](C)CO)C3=O)n(C)n1 | i
10 | CC(C)NC(=O)Nc1ccc2c(c1)CC(=O)N([C@H](C)CO)C[C@@H](C)[C@@H](CN(C)S(=O)(=O)c1ccc(Cl)cc1)O2 | i
11 | C[C@@H]1CN([C@@H](C)CO)S(=O)(=O)c2ccc(-c3ccc(C(=O)N(C)C)cc3)cc2O[C@@H]1CN(C)Cc1ccc2c(c1)OCO2 | i
12 | C[C@H](CO)N1C[C@H](C)[C@@H](CN(C)S(C)(=O)=O)OCCCC[C@H](C)Oc2ccc(NC(=O)NC3CCCCC3)cc2C1=O | i
13 | CCCCc1c(-c2ccccc2OC)ncn1Cc1cccc(F)c1F | i
14 | O=C(CCN1CCCCC1)N[C@H]1CC[C@H](CC(=O)N2CCC(Cc3ccccc3)CC2)O[C@H]1CO | i
15 | CO[C@@H]1CN(C)C(=O)c2cc(NS(C)(=O)=O)ccc2OC[C@H](C)N(C(=O)c2ccc3c(c2)OCO3)C[C@H]1C | i
16 | CCCc1cn(CC[C@H]2CC[C@H](NC(=O)C3CCC3)[C@@H](CO)O2)nn1 | i
17 | O=C(C[C@@H]1CC[C@@H]2[C@H](COC[C@@H](O)CN2S(=O)(=O)c2ccc(Cl)cc2)O1)NCCN1CCCC1 | i
18 | C[C@@H]1CN([C@@H](C)CO)C(=O)c2ccccc2-c2ccccc2CO[C@@H]1CN(C)C | i
19 | CN1CCN(C(=O)C[C@@H]2CC[C@H]3[C@@H](COC[C@@H](O)CN3C(=O)Cc3ccccc3)O2)CC1 | i
20 | C[C@H]1CN([C@@H](C)CO)C(=O)c2cc(C#Cc3ccccc3)cnc2O[C@H]1CN(C)Cc1ccccn1 | i
21 | C/C=C/c1cnc2c(c1)C(=O)N([C@@H](C)CO)C[C@@H](C)[C@H](CN(C)C(=O)Nc1ccc(OC)cc1)O2 | i
22 | O=C(NC1CCCC1)N1CCCCN2[C@H](CO)[C@@H](c3ccc(-c4ccccc4)cc3)[C@H]2C1 | i
23 | O=C(C[C@H]1C[C@H]2c3cc(NS(=O)(=O)c4ccccc4)ccc3O[C@H]2[C@H](CO)O1)NC1CCCC1 | i
24 | C[C@H](CO)N1C[C@H](C)[C@H](CN(C)S(=O)(=O)c2ccc(F)cc2)OCCCC[C@H](C)Oc2ccc(NC(=O)Nc3cccc4ccccc34)cc2C1=O | i
25 | C[C@@H]1CN([C@@H](C)CO)C(=O)c2cc(/C=C/c3ccccc3)cnc2O[C@H]1CN(C)C(=O)c1ccc2c(c1)OCO2 | i
26 | Cc1noc(C)c1NC(=O)Nc1ccc2c(c1)C(=O)N([C@H](C)CO)C[C@@H](C)[C@H](CN(C)Cc1ccc(C(=O)O)cc1)OCCCC[C@H](C)O2 | i
27 | COc1cccc(-c2ccc3c(c2)[C@@H]2[C@@H](CCN2C(=O)c2ccccn2)[C@@H](CO)N3C)c1 | i
28 | Cc1noc(C)c1S(=O)(=O)Nc1ccc2c(c1)C(=O)N([C@H](C)CO)C[C@H](C)[C@H](CN(C)S(=O)(=O)c1ccc(F)cc1)OCCCC[C@H](C)O2 | i
29 | O=C(Nc1ccc2c(c1)[C@@H]1C[C@H](CC(=O)N3CCCCC3)O[C@H](CO)[C@@H]1O2)NC1CCCC1 | i
30 | C[C@H]1CN([C@@H](C)CO)C(=O)c2cc(NC(=O)C3CCCCC3)ccc2O[C@@H]1CN(C)S(=O)(=O)c1ccc(F)cc1 | i
31 | CS(=O)(=O)N1C[C@H](O)COC[C@@H]2O[C@@H](CC(=O)NCc3ccc(-c4ccccc4)cc3)CC[C@H]21 | i
32 | O=C(NCCO)c1cccc(-c2cc(Nc3ccc(OC(F)(F)F)cc3)ncn2)c1 | i
33 | Cc1ccc(S(=O)(=O)N(C)C[C@@H]2Oc3c(NS(=O)(=O)c4ccc(F)cc4)cccc3C(=O)N([C@@H](C)CO)C[C@H]2C)cc1 | i
34 | C[C@@H]1CN([C@H](C)CO)C(=O)Cc2cc(NC(=O)c3ccncc3)ccc2O[C@H]1CN(C)Cc1ccc(-c2ccccc2)cc1 | i
35 | COc1cccc(-c2ccc3c(c2)O[C@@H](CN(C)C)[C@H](C)CN([C@H](C)CO)S3(=O)=O)c1 | i
36 | CNC(=O)C[C@H]1CC[C@H]2[C@@H](COc3ccc(NC(=O)c4ccno4)cc3C(=O)N2C)O1 | i
37 | O=C(Cc1ccccc1)N[C@H]1CC[C@@H](CC(=O)N2CCOCC2)O[C@H]1CO | i
38 | C[C@@H]1CN([C@@H](C)CO)C(=O)c2cc(NC(=O)c3ccncc3)ccc2O[C@@H](C)CCCCO[C@@H]1CN(C)C(=O)CCC(F)(F)F | i
39 | Cc1ccc(S(=O)(=O)N[C@H]2CC[C@H](CCNC(=O)C3CCC3)O[C@@H]2CO)cc1 | i
40 | CCc1cnc(N2[C@H](C#N)[C@H](c3ccc(C4=CCCC4)cc3)[C@H]2CO)s1 | i

6 compounds already listed, sorted by SMILES length, largest number first:
cpd | SMILES | FGF22 binding
28 | Cc1noc(C)c1S(=O)(=O)Nc1ccc2c(c1)C(=O)N([C@H](C)CO)C[C@H](C)[C@H](CN(C)S(=O)(=O)c1ccc(F)cc1)OCCCC[C@H](C)O2 | i
24 | C[C@H](CO)N1C[C@H](C)[C@H](CN(C)S(=O)(=O)c2ccc(F)cc2)OCCCC[C@H](C)Oc2ccc(NC(=O)Nc3cccc4ccccc34)cc2C1=O | i
21 | C/C=C/c1cnc2c(c1)C(=O)N([C@@H](C)CO)C[C@@H](C)[C@H](CN(C)C(=O)Nc1ccc(OC)cc1)O2 | i
36 | CNC(=O)C[C@H]1CC[C@H]2[C@@H](COc3ccc(NC(=O)c4ccno4)cc3C(=O)N2C)O1 | i
40 | CCc1cnc(N2[C@H](C#N)[C@H](c3ccc(C4=CCCC4)cc3)[C@H]2CO)s1 | i
37 | O=C(Cc1ccccc1)N[C@H]1CC[C@@H](CC(=O)N2CCOCC2)O[C@H]1CO | i

(list continues)
cpd | SMILES | FGF22 binding
41 | C[C@@H]1CN([C@H](C)CO)C(=O)c2c(c3ccccc3n2C)-c2ccccc2CO[C@H]1CN(C)C(=O)[C@@H](Cc1ccccc1)N(C)C | i
42 | COc1ccc(-c2ccc3c(c2)[C@H]2[C@H](CCN2S(=O)(=O)c2ccc(F)cc2)[C@H](CO)N3C)cc1 | i
43 | C[C@@H]1CN([C@@H](C)CO)C(=O)c2cc(NC(=O)c3ccncc3)ccc2O[C@@H]1CN(C)Cc1ccc(C(=O)O)cc1 | i
44 | O=C(C[C@H]1C[C@H]2c3cc(NC(=O)C4CCC4)ccc3O[C@H]2[C@H](CO)O1)NCCN1CCCCC1 | i
45 | CN1CCN(C(=O)C[C@H]2C[C@@H]3c4cc(NC(=O)C5CCOCC5)ccc4O[C@@H]3[C@@H](CO)O2)CC1 | i
46 | C[C@@H]1CN([C@@H](C)CO)C(=O)c2cc(Br)cnc2O[C@@H]1CN(C)C(=O)c1ccc(F)cc1 | i
47 | CNC[C@H]1OCCCC[C@@H](C)Oc2ccc(NS(=O)(=O)c3c(C)noc3C)cc2C(=O)N([C@H](C)CO)C[C@H]1C | i
48 | COCC#Cc1cnc2c(c1)C(=O)N([C@@H](C)CO)C[C@@H](C)[C@H](CN(C)C(=O)CN1CCOCC1)O2 | i
49 | CN(C)C(=O)c1ccc(-c2ccc([C@@H]3[C@H]4CN(C(=O)C5CC5)CCCCN4[C@H]3CO)cc2)cc1 | i
50 | CCCN1[C@H](C(=O)N[C@@H](C)c2ccccc2)[C@@H](CO)[C@@H]2Cn3c(ccc(-c4ccccc4)c3=O)[C@@H]21 | i
51 | COc1cccc(S(=O)(=O)N2C[C@@H](O)COC[C@@H]3O[C@@H](CC(=O)N4CCOCC4)CC[C@H]32)c1 | i
52 | CN(C)CC(=O)N[C@H]1CC[C@@H](CCn2cc(CN(C)C)nn2)O[C@H]1CO | i
53 | C[C@@H](NC(=O)C[C@H]1C=C[C@H](NC(=O)C2CCOCC2)[C@@H](CO)O1)c1ccccc1 | i
54 | CNC[C@@H]1Oc2cc(C#CC3(O)CCCC3)ccc2S(=O)(=O)N([C@@H](C)CO)C[C@@H]1C | i
55 | COc1ccc(CN(C)C[C@@H]2Oc3c(NC(=O)c4cc(C)nn4C)cccc3C(=O)N([C@H](C)CO)C[C@@H]2C)cc1 | i
56 | CCCNC(=O)[C@@H]1[C@@H](CO)[C@@H]2Cn3c(ccc(-c4cccc(F)c4)c3=O)[C@H]1N2C(=O)c1ccccn1 | i
57 | O=C(C[C@H]1CC[C@H](NC(=O)Nc2cc(F)ccc2F)[C@H](CO)O1)Nc1ccccc1 | i
58 | C[C@@H]1CN([C@H](C)CO)C(=O)c2cc(-c3ccc(C#N)cc3)cnc2O[C@@H]1CN(C)C(=O)c1cccnc1 | i
59 | O=C(N[C@H]1C=C[C@H](CC(=O)N2CCOCC2)O[C@@H]1CO)c1ccccn1 | i
60 | C[C@@H]1CN([C@H](C)CO)C(=O)c2c(c3ccccc3n2C)-c2ccccc2CO[C@H]1CN(C)S(=O)(=O)c1ccc([N+](=O)[O-])cc1 | i
61 | C[C@@H]1CN([C@@H](C)CO)C(=O)Cc2cc(NS(C)(=O)=O)ccc2O[C@@H]1CN(C)CC1CCCCC1 | i
62 | O=C(C[C@@H]1C[C@@H]2c3cc(NC(=O)CC4CC4)ccc3O[C@@H]2[C@H](CO)O1)NCC1CC1 | i
63 | C[C@@H]1CCCCO[C@@H](CN(C)C(=O)c2ccccc2)[C@H](C)CN([C@H](C)CO)C(=O)c2cc(NS(=O)(=O)c3cccs3)ccc2O1 | i
64 | N#Cc1cccc(-c2ccc([C@H]3[C@H](CO)N4CCCCN(S(=O)(=O)c5ccccc5)C[C@@H]34)cc2)c1 | i
65 | C[C@H]1CCCCO[C@@H](CN(C)CC2CCCCC2)[C@@H](C)CN([C@@H](C)CO)C(=O)c2cc(NS(=O)(=O)c3cccs3)ccc2O1 | i
66 | CN1[C@@H]2c3ccc(/C=C/c4ccccc4)c(=O)n3C[C@@H]2[C@@H](CO)[C@@H]1C(=O)Nc1nccs1 | i
67 | C[C@@H]1CN([C@@H](C)CO)C(=O)c2cc(NC(=O)Nc3ccc4c(c3)OCO4)ccc2O[C@H]1CN(C)Cc1ccc(C(=O)Nc2ccccc2N)cc1 | i
68 | CO[C@H]1CN(C)C(=O)c2ccc(NC(=O)Nc3c(C)noc3C)cc2OC[C@H](C)N(C)C[C@H]1C | i
69 | O=S(=O)(Cc1ccccc1)NCC[C@@H]1CC[C@H](NS(=O)(=O)c2ccccc2)[C@@H](CO)O1 | i
70 | C[C@H]1CN([C@@H](C)CO)C(=O)Cc2cc(NC(=O)Nc3cccc4ccccc34)ccc2O[C@H]1CN(C)S(C)(=O)=O | i
71 | C[C@H]1CN([C@@H](C)CO)C(=O)Cc2cc(NC(=O)Nc3ccc4c(c3)OCO4)ccc2O[C@H]1CN(C)S(=O)(=O)c1ccc(Cl)cc1 | i
72 | CN1C(=O)c2cc(NC(=O)c3ccc(F)cc3)ccc2OC[C@@H]2O[C@@H](CC(=O)O)CC[C@@H]21 | i
73 | C[C@@H](O)C#Cc1cnc2c(c1)C(=O)N([C@@H](C)CO)C[C@H](C)[C@H](CN(C)Cc1cncnc1)O2 | i
74 | C[C@@H]1CN([C@H](C)CO)C(=O)c2ccccc2-c2ccccc2CO[C@@H]1CN(C)S(=O)(=O)c1ccc(Cl)cc1 | i
75 | COC(=O)[C@]12C[C@H](CC(=O)N3CCN(C(=O)c4ccco4)CC3)C(=O)N(Cc3ccc4c(c3)OCO4)C1=C[C@H](C(C)(C)C)O[C@@H]2C | i
76 | CN(C)CCCNC(=O)C[C@@H]1CC[C@H]2[C@H](COc3ccc(NC(=O)c4cccc(F)c4)cc3C(=O)N2C)O1 | i
77 | O=C(Cc1cccnc1)N1CC(=O)N2[C@H](CO)[C@H](c3ccc(C4=CCCCC4)cc3)[C@@H]2C1 | i
78 | Cc1ccc(S(=O)(=O)N(C)C[C@@H]2Oc3ccc(NC(=O)Nc4ccc(C(F)(F)F)cc4)cc3CC(=O)N([C@@H](C)CO)C[C@H]2C)cc1 | i
79 | O=C(C1CCOCC1)N1CC[C@@H]2[C@H](CO)Nc3ccc(-c4ccc(F)cc4)cc3[C@@H]21 | i
80 | COC(=O)C1=C(C)N(Cc2ccccc2C(F)(F)F)C(=NCc2ccccc2C(F)(F)F)NC1c1cccc(C(F)(F)F)c1 (stereo not drawn) | i
81 | C[C@@H]1CN([C@H](C)CO)C(=O)c2cc(NC(=O)Nc3ccc(F)cc3)ccc2O[C@@H](C)CCCCO[C@@H]1CN(C)Cc1ccc2c(c1)OCO2 | i
82 | CCNC(=O)C[C@H]1CC[C@@H]2[C@@H](COc3ccc(NC(=O)C4CCCCC4)cc3C(=O)N2C)O1 | i

Given with the structure last: part of the list above
# | FGF22 binding | structure
77 | i | O=C(Cc1cccnc1)N1CC(=O)N2[C@H](CO)[C@H](c3ccc(C4=CCCCC4)cc3)[C@@H]2C1
42 | i | COc1ccc(-c2ccc3c(c2)[C@H]2[C@H](CCN2S(=O)(=O)c2ccc(F)cc2)[C@H](CO)N3C)cc1

Screening results as filed in PubChem BioAssay.

An excerpt (hit frequency here may not be typical).
